Source: PubChem (several laboratories)
Insulin prom inh – TRM-6 insulin promoter activity inhibition | TRM-6 cells (human fetal islet line), insulin promoter-eGFP reporter, imaging; reporter expression induced with tamoxifen | inhibition, % at 2 µM | 130,000 tested, 0.9% active | AID 1273;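 active = inhibition above the mean plus 3 SD, with well images judged a real hit on visual review, cut at about 60% in these data, passing the limit was not always enough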
GALR2 ag – agonists of human galanin receptor 2 (GALR2) | activation, %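 (tested at 5 µM)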 | GALR2-expressing cells, agonist activation read-out | O43603 | 140,000 tested, 0.48% active;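 active = above mean plus 3 SD of all compounds, about 5% in these data, not always enough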;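 also: 0% = vehicle buffer wells and 100% = reference agonist at full effect; tested in CHO reporter cells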
Target sequence (O43603 whole entry, looked up): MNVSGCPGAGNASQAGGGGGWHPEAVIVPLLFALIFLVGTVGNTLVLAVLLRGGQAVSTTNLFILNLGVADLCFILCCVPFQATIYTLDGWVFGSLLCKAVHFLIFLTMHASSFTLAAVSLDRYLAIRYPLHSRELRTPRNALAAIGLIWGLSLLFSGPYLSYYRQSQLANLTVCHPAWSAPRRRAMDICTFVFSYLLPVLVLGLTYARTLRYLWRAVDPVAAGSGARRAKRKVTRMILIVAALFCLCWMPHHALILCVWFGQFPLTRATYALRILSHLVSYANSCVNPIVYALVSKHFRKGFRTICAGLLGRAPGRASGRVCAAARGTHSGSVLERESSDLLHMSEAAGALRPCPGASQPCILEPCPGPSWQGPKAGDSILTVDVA
HSV augment – increases HSV replication in cells; HSV replication augmentation in cells, fold increase; maximum fold increase; 220,000 tested, 0.005% active; AID 1956;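 active = peak rise of 1.5-fold or more in the series; tested in PC3 cells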;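 also: first round at 10 µM; read as green reporter fluorescence; hits show the peak of a series up to 25 µM; 1 = signal of infected wells without compound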
PKD1 inh – inhibitors of human PKD1 kinase | PKD1 kinase fluorescence polarization assay | inhibition, %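 (about 10 µM by stock and volumes)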 | 200,000 tested, 0.056% active | AID 797;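 active = inhibition of 50% or more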;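 also: controls were vehicle for no effect and a reference inhibitor for full effect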
RGS16-Gao HTS – regulators of human RGS16-Galphao interaction. O15492+P09471. bead-based flow cytometry RGS16-Galphao binding, fluorescence; actives lie on both sides. binding response (% of control), % at 10 µM. 220,000 tested, 0.38% active. AID 1441;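 active = below 25% or above 175%, edge rows of some plates excepted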;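 also: Galphao activated by GDP with aluminum fluoride before binding; 100% = wells without compound and 0% = beads without RGS; some results beyond the cut were filed as inactive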
Target sequence (O15492 whole entry, looked up): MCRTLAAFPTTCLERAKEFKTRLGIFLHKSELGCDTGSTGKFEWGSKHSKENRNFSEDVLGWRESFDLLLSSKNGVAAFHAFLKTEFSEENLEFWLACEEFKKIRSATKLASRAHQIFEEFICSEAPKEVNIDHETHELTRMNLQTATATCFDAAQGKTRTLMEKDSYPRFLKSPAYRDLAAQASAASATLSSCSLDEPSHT
Target sequence (P09471 whole entry, looked up): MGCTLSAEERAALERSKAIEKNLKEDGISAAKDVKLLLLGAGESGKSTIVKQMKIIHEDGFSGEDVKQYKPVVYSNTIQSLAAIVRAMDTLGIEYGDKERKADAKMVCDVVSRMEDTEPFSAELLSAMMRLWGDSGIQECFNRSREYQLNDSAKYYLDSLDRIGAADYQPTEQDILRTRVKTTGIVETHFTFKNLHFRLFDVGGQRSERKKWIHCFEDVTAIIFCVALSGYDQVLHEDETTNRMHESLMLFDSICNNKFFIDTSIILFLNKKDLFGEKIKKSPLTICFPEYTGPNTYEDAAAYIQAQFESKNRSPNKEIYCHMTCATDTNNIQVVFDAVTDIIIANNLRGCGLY
Insulin prom inh cell count – further read-out of Insulin prom inh, marked with its call; normalized cell count, %; measured here: cell count, toxicity; reference of the scale not given here;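 cells exposed to compound for 48 h; stained nuclei by imaging scaled within each plate; lower means fewer cells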
HSV augment primary fold – further read-out of HSV augment, marked with its call; fold increase; compound at 10 µM; measured here: primary screen fold increase 10 uM; tested in PC3 cells;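 GFP signal in the first replicate; 1 = infected wells without compound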
Numbers without * were called inactive; i = inactive; · = no result given.

SMILES	Insulin prom inh	Insulin prom inh cell count	GALR2 ag	HSV augment	HSV augment primary fold	PKD1 inh	RGS16-Gao HTS
CCCC1=C/C(=C/c2ccc(-c3ccccc3OC)o2)C(=O)O1	-150	155	-1.4	i	1.2	-11	124
C=CCNC(=O)c1c(N)n(-c2cccc(S(N)(=O)=O)c2)c2nc3ccccc3nc12	8	138	8.3	i	0.82	-4	102
O=C(CSCc1ccccc1)NCc1ccc2c(c1)OCO2	-42	134	-2.1	i	0.97	4	96
COC(=O)c1c(-c2ccccc2)c[nH]c1C	·	·	·	i	0.72	·	99
CCOc1cc(C2NC(=O)N(C)C(C)=C2[N+](=O)[O-])ccc1OC(C)=O (stereo unspecified)	·	·	·	i	1	-2	103
CN(C)S(=O)(=O)c1ccc(NC(=O)c2ccc3ncsc3c2)cc1	·	·	·	i	0.96	·	100
Cc1cc(C)n2nc(C(=O)OCCOc3cccc(Br)c3)nc2n1	7	95	-1.3	i	1	-3	103
CN1C(=S)SC(C)(C)C1N(O)C(=O)Nc1ccc(Cl)cc1 (stereo unspecified)	·	·	·	i	0.9	-3	101
CCCn1c(CCC(=O)O)ccc1-c1ccccc1	-6	131	·	i	1.1	-7	98
CCCCNS(=O)(=O)c1ccc(OC)c(C)c1	46	94	-1.9	i	0.92	-5	118
Cn1c(CN2CCCC2)nc2cc(NC(=O)c3ccc(Cl)cc3)ccc21	·	·	·	i	1.1	5	97
O=C(Nc1ccc(F)cc1F)c1c(C(F)(F)F)ccnc1Oc1ccccc1	·	·	·	i	0.76	·	85
COc1ccc(Nc2nc(C)c(-c3ccccc3)s2)cc1	·	·	0.1	i	1	0	105
O=C(c1cccn(Cc2cccc(Cl)c2)c1=O)N1CCOCC1	36	76	-2.6	i	0.9	-13	101
CN(C)C(=S)NC1CCS(=O)(=O)C1 (stereo unspecified)	·	·	·	i	1	7	105
O=C(NCCCc1ccccc1)c1cccs1	12	170	-0.5	i	1.2	-6	110
O=C(NCc1cccs1)NC1CCCCC1	21	104	-1.4	i	0.74	-9	91
CCOCCCNC(=O)Cn1ncc2c(=O)oc3ccccc3c21	·	·	-0.9	i	0.86	2	98
CC(C)CCNC(=O)COC(=O)c1cc(Br)c(Br)s1	·	·	·	i	0.97	-1	105
Cc1cccc(C)c1NC(=O)C1C2C=CC(C2)C1C(=O)NCc1ccccn1 (stereo unspecified)	-86	105	-3.3	i	0.98	-12	95
COc1ccc(-c2csc(CCn3nc(C)cc3C)n2)cc1	33	62	·	i	1.1	0	113
Cc1ccccc1S(=O)(=O)Cc1ccc(C(=O)N2CCN(c3ccc(F)cc3)CC2)o1	·	·	-0.1	i	0.91	-3	80
CCCCCn1c(NC(=O)c2ccco2)c(S(=O)(=O)c2ccc(C)cc2)c2nc3ccccc3nc21	-3	63	3.6	i	1.1	-2	35
CCOC(=O)c1sc(NS(=O)(=O)c2ccc(NC(C)=O)cc2)nc1C	-89	113	-2.0	i	1	-7	101
O=C(CNC(=O)c1cccc(F)c1)N/N=C/c1cc(Br)ccc1OCc1ccccc1	26	110	-0.3	i	0.87	1	108
O=Cc1cn(CC(O)CN2CCCCC2)c2ccccc12 (stereo unspecified)	47	73	·	i	0.62	2	104
Nc1ccc(S(=O)(=O)Nc2nccc(/C=C/c3ccccc3F)n2)cc1	-6	134	·	i	0.91	1	99
O=C(c1ncc[nH]1)c1ccccc1C(=O)N1CCOCC1	47	112	-0.6	i	1.2	-3	100
COc1ccc(-c2oc3ncnc(NCCCN4CCOCC4)c3c2-c2ccc(OC)cc2)cc1	·	·	1.6	i	1	-8	99
CN(C)/C=C1\NC(=S)N(c2ccc(Cl)cc2)C1=O	·	·	·	i	0.95	10	97
Cc1cc(C(=O)Nc2ccccc2C(=O)N2CCCCC2)ccc1[N+](=O)[O-]	-64	75	·	i	1	2	106
COC(=O)c1cc2c(cc1Cl)SC(=NCCCN1CCOCC1)NS2(=O)=O	-39	95	-1.0	·	·	1	102
COCCn1c(-c2ccc(C#N)cc2)nc2c1c(=O)[nH]c(=O)n2Cc1ccccc1	-6	161	·	i	1.1	-1	101
CN(C)CCCNCCCNC(=O)/C=N/O	10	129	0.0	i	0.92	2	106
CCC(C)NS(=O)(=O)c1ccc(NC(=O)C2CCCO2)cc1 (stereo unspecified)	·	·	·	i	0.94	3	96
Nc1ccc(N2CCOCC2)c2nonc12	18	114	·	i	1.1	-2	98

11 entries already listed, arranged by heavy-atom count, largest number first.
SMILES	Insulin prom inh	Insulin prom inh cell count	GALR2 ag	HSV augment	HSV augment primary fold	PKD1 inh	RGS16-Gao HTS
CCCCCn1c(NC(=O)c2ccco2)c(S(=O)(=O)c2ccc(C)cc2)c2nc3ccccc3nc21	-3	63	3.6	i	1.1	-2	35
COc1ccc(-c2oc3ncnc(NCCCN4CCOCC4)c3c2-c2ccc(OC)cc2)cc1	·	·	1.6	i	1	-8	99
O=C(CNC(=O)c1cccc(F)c1)N/N=C/c1cc(Br)ccc1OCc1ccccc1	26	110	-0.3	i	0.87	1	108
COCCn1c(-c2ccc(C#N)cc2)nc2c1c(=O)[nH]c(=O)n2Cc1ccccc1	-6	161	·	i	1.1	-1	101
Cc1cc(C(=O)Nc2ccccc2C(=O)N2CCCCC2)ccc1[N+](=O)[O-]	-64	75	·	i	1	2	106
Nc1ccc(S(=O)(=O)Nc2nccc(/C=C/c3ccccc3F)n2)cc1	-6	134	·	i	0.91	1	99
CCOC(=O)c1sc(NS(=O)(=O)c2ccc(NC(C)=O)cc2)nc1C	-89	113	-2.0	i	1	-7	101
CCC(C)NS(=O)(=O)c1ccc(NC(=O)C2CCCO2)cc1 (stereo unspecified)	·	·	·	i	0.94	3	96
O=Cc1cn(CC(O)CN2CCCCC2)c2ccccc12 (stereo unspecified)	47	73	·	i	0.62	2	104
CN(C)/C=C1\NC(=S)N(c2ccc(Cl)cc2)C1=O	·	·	·	i	0.95	10	97
Nc1ccc(N2CCOCC2)c2nonc12	18	114	·	i	1.1	-2	98

Further entries.
SMILES	Insulin prom inh	Insulin prom inh cell count	GALR2 ag	HSV augment	HSV augment primary fold	PKD1 inh	RGS16-Gao HTS
CC(=O)Nc1ccc(S(=O)(=O)Oc2ccc(C(=S)N3CCCCC3)cc2)cc1	-15	92	-0.2	i	0.97	-16	80
CCn1c(N)c(C(=O)NCCOC)sc1=S	·	·	-1.2	i	1	7	133
CCOC(=O)C1CCN(C(=O)c2cccc(NS(=O)(=O)c3ccc(F)c(F)c3)c2)CC1	·	·	·	i	0.95	-2	102
Cc1ccc(-c2cc(C(=O)Nc3cnn(C(C)C)c3)no2)cc1	-33	51	1.6	i	0.95	4	97
CCn1c(=O)cc(SCC(=O)Nc2cccc(SC)c2)c2ccccc21	-3	70	1.7	i	0.99	-7	98
CSc1nsc(SC)c1C(=O)OCC(F)(F)F	·	·	-2.5	i	0.98	1	61
Cc1ccc(/C=N\NC(=O)C2CN(S(=O)(=O)c3ccccc3)CCN2S(=O)(=O)c2ccccc2)cc1 (stereo unspecified)	·	·	-0.3	i	0.98	4	106
O=C(Cc1cccs1)Nc1ccc(Cl)cc1	39	113	-1.9	i	0.96	4	107
CC(C)CN(Cc1cc2ccccc2[nH]c1=O)C(=O)c1cccnc1	35	129	0.1	i	0.84	-9	97
C=CCSc1nc2sc(C)c(C)c2c(=O)[nH]1	-143	136	-0.4	i	0.85	-3	94
O=C(O)CN=C1NC2(CCCC2)Cc2ccccc21	10	78	-0.4	i	0.76	8	125
O=C(OCCN(C1=NS(=O)(=O)c2ccccc21)c1ccccc1Cl)c1ccc(Cl)cc1	6	73	2.1	i	0.98	7	108
C(/C=C/c1ccco1)=N/N1CCN(c2ccccc2)CC1	-24	86	-2.6	i	0.94	0	102
COc1cccc(NS(=O)(=O)c2ccc3c(c2)C2C=CCC2C(c2ccc(C(=O)O)cc2)N3)c1 (stereo unspecified)	-19	101	-1.3	i	1.2	0	89
Cc1ccccc1OCC(=O)N/N=C/c1cccn1C	16	133	-2.3	i	0.94	-3	102
O=C(NCc1ccc2c(c1)OCO2)c1cc2ccccc2oc1=O	58	133	-1.7	i	1.1	-3	63
COc1ccccc1-c1cc(C(F)(F)F)nc(S(=O)(=O)CCCC(=O)Nc2cccnc2Cl)n1	73*	74*	·	i	0.55	-7	73
Cc1nn(C)c2ncc(C(=O)c3cc(F)ccc3O)cc12	40	101	-0.1	i	0.84	0	103
COc1ccc(NC(=O)CSc2nnc3ccc(-c4ccncc4)nn23)cc1OC	·	·	·	i	0.9	3	98
Cc1ccccc1CNC(=O)c1ccc(Cl)c([N+](=O)[O-])c1	-100	34	-0.5	·	·	-5	101
Clc1ccc(CNC2CCCC2)c(Cl)c1	-20	103	-1.4	i	0.92	-1	108
COCCn1nnnc1SCC(=O)N1CCCCC1	8	91	-2.7	i	1	-17	99
CC(=O)N/C(=C\c1ccc(Br)s1)C(=O)O	45	121	·	i	0.97	-6	99
O=C(Nc1cccc(Cl)c1)OCc1cn(-c2ccc(Cl)cc2)nn1	-67	98	-2.2	·	·	-6	99
CCCC(=O)NC(=S)Nc1ccc(CN2CCOCC2)cc1	·	·	·	i	1	0	103
CCCCSc1cc(=O)n(-c2ccccc2)nc1C(=O)OCC	4	106	-0.7	i	1	-4	111
O=C1CN(C(=O)COC(=O)c2ccc(N3CCCCCC3)c([N+](=O)[O-])c2)c2ccccc2N1	·	·	0.2	i	1.2	5	98
Cc1ccnc(N2C3CCC2CC(O)(c2ccccc2)C3)n1 (stereo unspecified)	-10	99	·	i	0.98	-3	98
CCOC(=O)c1cnc2ccc(OC)cc2c1NCc1ccccc1	-14	93	-1.5	i	0.8	-21	86
CC(C)[C@H](NC(=O)c1ccc(F)cc1)C(=O)OCC(=O)NC(=O)c1cccn1C	·	·	-0.8	i	0.98	4	96
Cc1cc2c(n1-c1ccc(C(N)=O)cc1)CC(C)(C)CC2=O	57	121	-1.2	i	0.93	8	84
COC(=O)c1ccc(C23CC4(C2)[C@H](CN(Cc2ccc(-c5ccccc5)cc2)[C@@H]4c2ccccc2)C3c2ccc(Cl)nc2)cc1 (stereo partly specified)	·	·	·	i	0.99	·	103
Cc1cc(C(=O)CN2C(=O)NC3(CCCc4sccc43)C2=O)c(C)n1-c1ccc(Cl)cc1 (stereo unspecified)	-4	145	0.6	i	0.91	4	99
COC(=O)/C=C1\SC(=Nc2ccccc2)NC1=O	-24	172	-0.2	i	0.95	-7	99
O=C(CN1CCN(c2ccccn2)CC1)Nc1cccc(S(=O)(=O)N2CCCC2)c1	·	·	·	i	0.97	-5	112
O=C(NCCCN1CCCCCC1)C1CC(=O)N(CCc2ccccc2)C1 (stereo unspecified)	40	96	-2.8	i	1	38	98
COc1cccc(C2=NOC(C(=O)Nc3cccc(C(C)=O)c3)C2)c1OC (stereo unspecified)	7	94	-0.9	i	1.1	-9	111
CCn1c(CNC(=O)c2ccco2)nnc1SCC(=O)c1ccccc1	-36	98	·	i	0.95	-3	108
COc1ccc(C(=O)Nc2ccc(S(=O)(=O)Nc3onc(C)c3C)cc2)cc1OC	6	132	-1.2	i	0.96	-8	100
O=C(Nc1cccc2ccccc12)N1CCN(c2ncccn2)CC1	2	57	·	i	1.2	3	105
O=c1cc(C(Cl)(Cl)Cl)oc2c1ccc1ccccc12	58	86	-0.4	i	0.53	-6	102
CCOC(=O)c1cc(C#N)c(N2CCOCC2)nc1-c1ccccc1	·	·	·	i	0.77	1	109
CC(=O)Nc1ccc(NC(=O)COc2ccc3c(c2)CCC3)cc1	·	·	·	i	0.98	4	100
COc1ccc(CCNC(=O)C(C)c2ccc([N+](=O)[O-])cc2)cc1 (stereo unspecified)	29	147	·	i	1	2	104
Nc1nc(CSC(=S)N2CCCCC2)nc(Nc2ccccc2)n1	25	26	·	i	0.91	1	112
c1ccc(OCCOCCN2CCN(C(c3ccccc3)c3ccccc3)CC2)cc1	-47	183	-0.9	i	0.77	-13	105
CC(C)(C)NC(=O)CN(C(=O)Cn1nnc(-c2ccc(Cl)cc2)n1)C1CCN(Cc2ccccc2)CC1	-7	132	-2.1	·	·	-3	104
c1ccc(-c2csc(-c3ccncc3)n2)cc1	42	114	·	i	1	11	103
OCC(CO)(CO)NC(=S)Nc1cc(Cl)cc(Cl)c1	·	·	·	i	1	·	104
C/C(=N\Nc1ccc([N+](=O)[O-])cc1)c1ccc2c(c1)OCO2	·	·	·	i	0.78	-2	101
O=C(Nc1ccc(F)cc1)Nc1nnc(COc2ccccc2F)s1	24	88	·	i	0.93	5	97
COc1ccc(C(O)c2nc3ccccc3s2)cc1 (stereo unspecified)	-61	94	-0.3	i	1	-13	98
CCCCNC(=O)CNC(=S)N(Cc1cc(OC)c(OC)c(OC)c1)C1CCCC1	-4	119	-0.5	i	0.97	-16	89

Compounds were not picked by outcome (roughly 1.3% active in at least one column).
